# E coli growth – E. coli growth inhibition, primary screen, OD600; hit rate 0.21% among 330,000; Escherichia coli growth, 23 h; active compounds read low; OD600 absorbance (no concentration beside the values);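 active means OD600 absorbance below the run mean of sample wells minus 3.6 SD, in any replicate, cut at about 0.56 in these data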;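 further: stock transfer was 300 nL into about 60 µL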
# B2AR ag – beta2AR agonists driving receptor internalization, primary screen, cell-based, FAP fluorogen, flow cytometry; Beta-2 adrenergic receptor (Homo sapiens), P07550; Am2.2-beta2AR cells; reference of the scale not given here; response, % (test concentration not listed); hit rate 0.43% among 340,000; AID 504454, 2011;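 active means response above a set limit, near 3 SD of response in nonfluorescent compounds, cut at about 42% in these data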;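 further: stock transfer was 100 nL into about 11 µL; a reference agonist was the positive control; negative values mostly stem from fluorescent compounds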
# Target sequence (P07550 whole entry, looked up): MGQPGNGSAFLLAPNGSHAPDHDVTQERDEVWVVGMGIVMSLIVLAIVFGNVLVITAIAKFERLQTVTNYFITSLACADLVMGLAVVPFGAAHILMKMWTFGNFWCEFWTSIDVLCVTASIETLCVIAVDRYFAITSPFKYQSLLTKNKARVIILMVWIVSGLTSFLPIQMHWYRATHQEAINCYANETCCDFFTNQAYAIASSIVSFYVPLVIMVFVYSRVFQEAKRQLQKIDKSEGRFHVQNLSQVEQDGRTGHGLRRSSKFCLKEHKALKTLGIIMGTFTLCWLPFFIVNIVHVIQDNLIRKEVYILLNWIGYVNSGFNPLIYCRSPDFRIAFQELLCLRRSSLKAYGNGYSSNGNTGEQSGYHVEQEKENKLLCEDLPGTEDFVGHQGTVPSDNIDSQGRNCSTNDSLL
# UCH37 DUB inh – inhibitors of human UCH37 deubiquitinase, primary screen, biochemical, Ub-AMC cleavage, fluorescence. inhibition, % (concentration not given with the values). purified proteasome/UCH37. Ubiquitin carboxyl-terminal hydrolase isozyme L5 (Homo sapiens), Q9Y5K5. hit rate 0.33% among 330,000;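 active means mean of two replicates above 20%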;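 further: 0% = compound-free wells with enzyme and 100% = wells lacking proteasome; stock transfer was 100 nL into about 20 µL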
#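 Material: Human UCH37 enzyme supplied as purified proteasome complex | Schedule: 30 min preincubation with enzyme, 25 min cleavage at room temperature | Detection: AMC fluorescence 355/460 nm | Measure: % inhibition of Ub-AMC cleavage fluorescence | Controls: Wells without proteasome as full block, compound-free enzyme plus substrate as uninhibited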
# FGF22 binding – binders of human FGF22 protein, primary screen, FGF22 synaptogenesis inhibitor project, biophysical, thermal shift, single point. recombinant FGF22 thermal shift, SYPRO orange fluorescence; percent of sucrose octasulfate shift, DMSO zero. AID 651658, 2012. calls only at 9.99 µM. hit rate 1.5% among 340,000;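 active means melting point raised past a set limit in the mean and every replicate; three in four hits are not shown here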
# Target sequence (Q9HCT0 whole entry, looked up): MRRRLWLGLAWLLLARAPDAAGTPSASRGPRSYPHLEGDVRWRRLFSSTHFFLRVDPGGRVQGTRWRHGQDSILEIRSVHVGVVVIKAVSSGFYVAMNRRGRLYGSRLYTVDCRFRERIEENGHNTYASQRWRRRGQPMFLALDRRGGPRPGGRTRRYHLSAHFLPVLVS
# LANA-H2A inh – blockers of LANA interaction with H2A/H2B – biochemical, FP readout, HTS, primary screen; hit rate 0.6% among 320,000; AID 2629, 2010; inhibition, % (test concentration not listed); cell-free LANA-H2A/H2B peptide, fluorescence polarization; Protein LANA1 (Human herpesvirus 8 type P (isolate GK18)), Q9QR71; in the data active means inhibition mostly above about 10%, no sharp cut-off; inactive means mostly below about 6.7%;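 further: stock transfer was 7.5 nL into about 10 µL; 0% = median of vehicle wells and 100% = median of positive control wells; one replicate is shown; the record names a cut of 25% in any replicate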
# HNF4A DNA FP – change in binding of human HNF4A to DNA, primary screen, biochemical, fluorescence polarization, FITC-DNA; Hepatocyte nuclear factor 4-alpha (Homo sapiens), P41235; 1 h; activity change, % at 10 µM; hit rate 0.3% among 360,000; AID 1224865, 2016; in the data active means activity change above about 30%, passing the limit was not always enough;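 further: controls were the assay level and a saturating level of protein; the project sought stronger binding though the title names inhibitors; some compounds called inactive have numbers as strong as hits; positive values seem to mean higher polarization but the record does not say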
# ALR H2O2 inh – inhibitors of human ALR sulfhydryl oxidase, primary screen, biochemical, H2O2 detection, HRP-luminol luminescence, single point; FAD-linked sulfhydryl oxidase ALR (Homo sapiens), P55789; purified ALR, DTT oxidation; inhibition, % (test concentration not listed); hit rate 3.8% among 290,000;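 active means mean and each replicate at 75% or more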;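 further: stock transfer was 7.5 nL into about 7.5 µL; 0% = neutral wells and 100% = wells with inactivated enzyme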
# Target sequence (P55789 whole entry, looked up): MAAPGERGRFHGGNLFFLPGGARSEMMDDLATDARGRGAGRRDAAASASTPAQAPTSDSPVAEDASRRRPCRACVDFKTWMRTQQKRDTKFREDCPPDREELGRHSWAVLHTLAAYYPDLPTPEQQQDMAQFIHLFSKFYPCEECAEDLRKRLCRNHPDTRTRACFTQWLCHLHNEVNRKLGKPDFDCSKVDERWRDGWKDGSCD
# Starred values were filed as active, the others as inactive; i = inactive; / = no result given; & = joins results of further samples.
SMILES	E coli growth	B2AR ag	UCH37 DUB inh	FGF22 binding	LANA-H2A inh	HNF4A DNA FP	ALR H2O2 inh
CN(C)/C=N/N(C)c1ncccc1[N+](=O)[O-]	/	-1	/	i	-4.5	-1.1	-2
CN(C)c1cc[n+](CC(=O)c2cccs2)cc1	0.7	-4	0.6	i	8.1	3.2	-21
COc1ccc(Nc2nc(N)nc(CN(C)C3CCCCC3)n2)cc1	0.72	-3	2.5	/	3.6	-1.5	-23
C/C=C/C(=O)OCC(=O)Nc1ccc(OC)c(Cl)c1	0.69	1	3.3	/	/	-3.2	/
COc1ccc(C(=O)Nc2cccc(NC(=O)c3cccs3)c2)cc1	0.62	-5	4.8	i	5.1	2.0	5
OCCC1CN(Cc2cnc(N3CCCC3)s2)CCN1Cc1ccccc1 (centres undefined)	0.69	-3	-0.8	/	-4.1	-2.4	/
COc1ccccc1CNS(=O)(=O)c1ccc(Cl)s1	0.65	7	0.6	i	0.6	3.0	-1
COc1ccc(Cl)cc1C(=O)NNC(=O)CCNC(C)=O	0.72	-3	-3.6	i	3.8	-3.0	-8
COc1ccccc1NC(=O)c1ccc(NC(=O)c2cc3c(s2)CCC3)cc1	0.67	-1	-0.7	/	-2.8	-4.0	-1
CN(CC(=O)Nc1ccc(Cl)c(C(F)(F)F)c1)C(=O)c1cccc2cccnc12	0.68	0	2.5	i	-3.9	-2.9	/
CCc1nc(NCc2ccco2)c2oc3ccccc3c2n1	0.69	0	0.7	/	2.2	5.9	88*
CCCNC(=O)c1onc(CSc2cccc(OC)c2)c1C(=O)NCCC	0.67	-9	1.6	i	2.9	-2.7	5
CCCCc1cc(=O)oc2cc(C)cc(OC(C)C(=O)NCc3ccccn3)c12 (centres undefined)	0.73	-1	-10	i	-1.4	-0.8	-2
Nc1nnnn1/N=C/C(Br)=C/c1ccccc1	/	16	/	/	7.2	-0.2	-15
Clc1ccc2c(c1)C=Nc1c(NCc3ccccc3)ncnc1O2	0.79	-3	3.0	/	8.7	1.9	0
CCN(CC)CCCN1C(=O)c2oc3ccccc3c(=O)c2C1c1cccc(OC)c1OC (centres undefined)	/	1	/	/	1.5	-2.2	2
OCC1(Cc2ccc(F)cc2F)CCCN(Cc2ccc(Cl)cc2)C1 (centres undefined)	0.7	-6	-0.2	i	2.5	-2.6	1
CCCCOC(=O)C1Cc2ccccc2C(=O)O1 (centres undefined)	0.72	0	6.8	/	-1.0	3.3	-7
C=CCOc1ccc(/C(O)=C2/C(=O)C(=O)N(CCCn3ccnc3)C2c2ccco2)cc1 (centres undefined)	0.7	1	5.4	i	-1.4	-3.0	/
CCCN1CCC(NC(=S)Nc2ccc([N+](=O)[O-])cc2)CC1	0.6	5	6.2	i	-0.6	-1.3	4
COc1cccc(CCc2nnc(CCC(=O)NCCC3CCCCO3)o2)c1 (centres undefined)	0.7	-2	-1.1	i	1.2	2.7	-8
COc1ccc(CCNc2c([N+](=O)[O-])ncn2C)cc1OC	0.66	-7	8.8	i	-2.6	-1.5	-13
CCOc1cc2c3c(c1)C1(C(=O)N3C(C)(C)C=C2C)C(C#N)=C(N)Oc2cc(O)ccc21 (centres undefined)	0.65	8	-8.3	/	-3.3	0.8	-6
O=C(N/N=C/c1cnc(N2CCCCC2)s1)c1ccc(C(F)(F)F)cc1	/	-1	/	i	-4.0	-1.3	-3
C=CCn1c(SCC(=O)NC(=O)NCc2ccco2)nc2sc(CC)cc2c1=O	0.73	-7	3.5	/	-4.1	-3.2	/
O=C(Cn1cnc2ccccc2c1=O)N1CCN(Cc2ccc3c(c2)OCO3)CC1	0.75	9	-2.0	/	-0.4	-0.5	2
CCC(C)[C@H](NC(=O)NCc1ccc(S(N)(=O)=O)cc1)C(=O)OC (some centres undefined)	0.71	-5	-0.6	i	-0.4	3.0	-2
Cc1c(CN2CCCCC2)c(O)n(CCCO)c(=O)c1C#N	0.73	14	-1.1	/	-4.5	-0.7	-25
CCC(C)Sc1ccc([C@H]2N[C@@](C)(C(=O)OC)[C@H]3C(=O)N(C)C(=O)[C@@H]23)cc1 (some centres undefined)	/	-1	0.4	i	-8.2	-0.8	-9
O=C(CCCC(=O)N/N=C\c1ccccn1)N/N=C\c1ccccn1	/	4	/	i	0.8	-1.9	-4

# Other structures follow:
SMILES	E coli growth	B2AR ag	UCH37 DUB inh	FGF22 binding	LANA-H2A inh	HNF4A DNA FP	ALR H2O2 inh
O=C(NCc1ccccc1Cl)c1cccc(NC2=NC3CS(=O)(=O)CC3S2)c1 (centres undefined)	0.75	5	4.6	i	-4.3	1.6	-1
COc1ccc([C@H]2CC(=O)C=C(c3ccc(OC)nc3)C2)cc1	/	-7	-1.3	i	-3.4	-0.8	3
O/N=C1/C2C3CC4C5C3C1C5C1(OCCO1)C42 (centres undefined)	/	-10	/	/	-2.8	-0.3	-6
CCNc1oc(-c2ccc(OC)cc2)nc1S(=O)(=O)c1ccc(Br)cc1	0.68	0	-6.7	/	-3.7	-4.1	6
O=C(c1ccco1)c1cn(CC(=O)N2CCCCC2)c2ccccc12	0.71	-17	8.0	/	4.3	3.6	/
CCOC(=O)C1=CC[C@H]2c3c(c4ccc(OC)cc4n3C)C(=O)C1N2S(=O)(=O)c1ccc(C)cc1	/	-3	-3.5	i	6.7	-2.8	6
CC(NC(=O)c1ccccc1F)c1nnc(SCC(=O)NC2=NCCS2)n1C (centres undefined)	0.66	8	4.1	i	2.1	1.4	0
Clc1ccc(CNC23CN4CN(CN(C4)C2)C3)c(Cl)c1	0.68	5	2.3	i	-1.4	-4.4	0
COc1ccc(NC2=C(Cl)C(=O)N(CCc3ccccc3)C2=O)c(OC)c1	0.73	2	1.4	/	6.1	-0.8	-1
Cc1cc2n(c(=O)c1C#N)CCCN2c1cccc(Cl)c1	0.72	-7	-77	/	-8.0	-1.1	-3
CCOC(=O)N/N=C1\CCc2ccccc21	/	-10	/	/	-2.2	1.7	-3
CCn1c(SCC(=O)Nc2ccc3c(c2)OCO3)nnc1C(C)C	0.66	0	4.0	i	3.4	-1.7	/
O=C1CC(c2ccc(O)cc2)Oc2cc(O)cc(O)c21 (centres undefined)	0.67&0.58	-1	3.9	i	-26&2.4	1.6	99*
CCS(=O)(=O)N1CCC(C(=O)Oc2ccccc2Cl)CC1	0.69	3	3.0	i	-1.5	-0.2	1
CCCCOc1ccc(C2CC(=O)N(C)C2=O)cc1 (centres undefined)	0.7	-14	0.9	/	3.1	0.8	0
O=C(CSc1nnnn1-c1ccccc1)Nc1ncc(Cc2cc(Cl)ccc2Cl)s1	0.75	5	-1.3	/	0.2	-2.5	/
C=C(NS(=O)(=O)c1ccc(C)cc1)C(=O)OC	0.71	-7	0.6	i	/	1.8	/
C/C=C/C(=O)Nc1nnc(-c2ccccc2C)s1	0.67	-12	2.0	i	5.0	-0.2	98*
O=c1[nH]cnc2scc(C3COc4ccccc4O3)c12 (centres undefined)	0.65	-20	0.8	/	-5.9	-4.5	-3
Cc1ccc(Nc2nnc(SCC(=O)c3ccc(Br)s3)s2)c(C)c1	0.7	-4	1.8	i	-4.0	8.0	-9
CCOC(=O)c1sc(NC(=O)CSc2n[nH]c(-c3ccccc3)n2)c(C#N)c1C	/	8	/	/	0.0	3.2	/
COc1ccc(NC2CS(=O)(=O)CC2NCc2ccccc2)cc1 (centres undefined)	0.69	5	0.0	/	-0.4	5.4	/
N#Cc1c(NC(=O)CSc2nc(-c3ccccc3)cc(C(F)(F)F)n2)sc2c1CCC2	0.72	-9	0.5	/	4.1	1.3	3
Cc1ccc(-n2c(CNc3ccc(F)cc3)nnc2SCC(N)=O)cc1	0.71	5	4.5	/	-0.2	-1.4	29
O=C(COC(=O)c1c[nH]c(=O)[nH]c1=O)Nc1ccccc1	0.68	-4	3.9	i	1.4	3.2	1
Cc1ccc(-c2[nH]c(-c3ccccc3)nc2SCC(=O)NCC2CCCO2)cc1 (centres undefined)	0.74	-10	-3.1	i	0.4	3.6	48
OCCN=C(c1ccccc1)C12CN3CN(CN(C3)C1)C2	0.78	-5	3.7	/	-1.6	2.5	-8
CSCCC(NC(=O)c1ccoc1C)C(=O)O (centres undefined)	0.68	-7	3.7	/	-1.8	-3.6	-5
COc1cccc(C2=N/C(=C\N(C)C)C(=O)O2)c1	0.74	-1	25*	/	-1.9	3.1	/
CCCCN1C(=S)NC[C@@H]1Cc1ccc(O)cc1	/	-5	2.1	i	1.1	0.5	/

# Some of these compounds in order of formula weight, smallest number first:
SMILES	E coli growth	B2AR ag	UCH37 DUB inh	FGF22 binding	LANA-H2A inh	HNF4A DNA FP	ALR H2O2 inh
C=C(NS(=O)(=O)c1ccc(C)cc1)C(=O)OC	0.71	-7	0.6	i	/	1.8	/
CCCCN1C(=S)NC[C@@H]1Cc1ccc(O)cc1	/	-5	2.1	i	1.1	0.5	/
O=C1CC(c2ccc(O)cc2)Oc2cc(O)cc(O)c21 (centres undefined)	0.67&0.58	-1	3.9	i	-26&2.4	1.6	99*
O=C(COC(=O)c1c[nH]c(=O)[nH]c1=O)Nc1ccccc1	0.68	-4	3.9	i	1.4	3.2	1
COc1ccc([C@H]2CC(=O)C=C(c3ccc(OC)nc3)C2)cc1	/	-7	-1.3	i	-3.4	-0.8	3
Clc1ccc(CNC23CN4CN(CN(C4)C2)C3)c(Cl)c1	0.68	5	2.3	i	-1.4	-4.4	0
COc1ccc(NC2CS(=O)(=O)CC2NCc2ccccc2)cc1 (centres undefined)	0.69	5	0.0	/	-0.4	5.4	/
Cc1ccc(-n2c(CNc3ccc(F)cc3)nnc2SCC(N)=O)cc1	0.71	5	4.5	/	-0.2	-1.4	29
COc1ccc(NC2=C(Cl)C(=O)N(CCc3ccccc3)C2=O)c(OC)c1	0.73	2	1.4	/	6.1	-0.8	-1
Cc1ccc(-c2[nH]c(-c3ccccc3)nc2SCC(=O)NCC2CCCO2)cc1 (centres undefined)	0.74	-10	-3.1	i	0.4	3.6	48
O=C(NCc1ccccc1Cl)c1cccc(NC2=NC3CS(=O)(=O)CC3S2)c1 (centres undefined)	0.75	5	4.6	i	-4.3	1.6	-1
CCNc1oc(-c2ccc(OC)cc2)nc1S(=O)(=O)c1ccc(Br)cc1	0.68	0	-6.7	/	-3.7	-4.1	6
N#Cc1c(NC(=O)CSc2nc(-c3ccccc3)cc(C(F)(F)F)n2)sc2c1CCC2	0.72	-9	0.5	/	4.1	1.3	3
O=C(CSc1nnnn1-c1ccccc1)Nc1ncc(Cc2cc(Cl)ccc2Cl)s1	0.75	5	-1.3	/	0.2	-2.5	/

# (continued)
SMILES	E coli growth	B2AR ag	UCH37 DUB inh	FGF22 binding	LANA-H2A inh	HNF4A DNA FP	ALR H2O2 inh
Cn1ncc(Cl)c(Oc2ccc(C(C)(C)C)cc2)c1=O	0.69	5	4.7	i	1.1	1.7	7
Cc1nc2ncnn2c(C)c1CCC(=O)Nc1csc(N)n1	0.72	-3	2.2	/	-5.1	2.9	-7
Cc1cccc(Cn2cnc3c(nnn3Cc3ccc(Cl)cc3)c2=O)c1	0.72	-4	3.3	/	5.5	0.7	-7
Cc1cc(C)c2c(NC(N)=S)n[nH]c2n1	0.72	-6	0.2	i	0.2	1.0	6

# Not all compounds are listed; rates above refer to the full screens.
